GIV-Gai inh – inhibitors of GIV peptide binding to Galpha-i3, primary screen, biochemical, fluorescence polarization, FITC-GIV GBA peptide, rat Galphai3; Guanine nucleotide-binding protein G(i) subunit alpha-3 (Rattus norvegicus), P08753; 90 min; active compounds read low; scaled: aluminum fluoride 0%, vehicle 100%; percent of control (FP), % (concentration not given with the values); hit rate 0.42% among 210,000;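 active = replicate mean at 85% of control or lower, very high polarization wells dropped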;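 note: wells of about 15 µL received 100 nL stock; the first replicate is given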
Target sequence (P08753 whole entry, looked up): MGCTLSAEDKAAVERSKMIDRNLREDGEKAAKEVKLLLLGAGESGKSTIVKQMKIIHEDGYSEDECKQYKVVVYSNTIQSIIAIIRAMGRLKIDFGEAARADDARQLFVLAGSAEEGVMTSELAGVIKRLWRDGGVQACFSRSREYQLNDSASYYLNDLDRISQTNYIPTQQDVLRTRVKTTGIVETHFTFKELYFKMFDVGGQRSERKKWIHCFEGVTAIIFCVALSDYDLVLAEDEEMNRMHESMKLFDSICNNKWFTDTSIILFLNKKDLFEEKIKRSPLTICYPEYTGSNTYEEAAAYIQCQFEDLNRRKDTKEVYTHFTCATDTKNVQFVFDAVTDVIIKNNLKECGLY
* marks the source's active call; other numbers are inactive results.

SMILES	GIV-Gai inh
CC1CC(=O)NC2(C)N1c1ccccc1C2(C)C (centres undefined)	101
Cc1cc(N2CC(C)CC(C)C2)n2nc(-c3ccccc3)cc2n1 (centres undefined)	106
O=C(Nc1ccc2c(c1)OCO2)C1CCCN(c2ncc(-c3ccccc3)cn2)C1 (centres undefined)	101
CCOc1ccc(N2CC(O)(c3ccc(Cl)cc3)[N+]3=C2SCCC3)cc1 (centres undefined)	114
Cc1cc(N2C(=O)NC(=O)/C(=C\C=C\c3ccco3)C2=O)ccc1Br	115
CCc1ccccc1NC(=O)CSc1nc2cc(C(=O)NCC3CCCO3)ccc2c(=O)n1Cc1ccco1 (centres undefined)	100
O=C(Cc1nnc(NC(=O)Nc2cccc(Cl)c2)s1)NCc1ccccc1	99
COc1ccc(NC(=O)c2ccc(-n3cnc(NC(C)=O)c3)cc2)c(OC)c1	98
CC(C)n1cc(C(=O)O)c(S(=O)(=O)N2CCCC2)n1	100
COCCNc1nc(SCc2ccc(Cl)cc2)nc2ccccc12	107
CC(C)(C)NC(=O)c1ccc(-c2cc(N3CCCC3)ncn2)cc1	102
Cc1ccc(N2C(=O)C(C)SC23C(=O)Nc2ccccc23)cc1 (centres undefined)	110
Cn1cnc2c1c(=O)n(Cc1ccccc1F)c(=O)n2C	100
CCOC(=O)C1=C(C)NC2=C(C(=O)C(C(=O)OCC)C(c3cccc(OC)c3)C2)C1c1cc(OC)ccc1OC (centres undefined)	103
COc1cc(C2CC(=O)Nc3c2ccc2ccccc32)cc(OC)c1OC(C)=O (centres undefined)	105
Cc1c(C(=O)N2CCC(C)CC2)sc2ncnc(N3CCCCC3C)c12 (centres undefined)	100
COc1ccc(C2SCc3cc(C)c(C)cc3CS2)cc1	111
CCOc1ccc(NC(=O)CSC2=C(C#N)C(c3ccccc3C)C3=C(CCCC3=O)N2)cc1 (centres undefined)	104
CC1=Nc2ccccc2C(c2ccccc2)(c2ccccc2)O1	116
CCCc1cc(N2CCN(C(=O)C3(c4ccccc4)CC3)CC2)nc2nnc(C)n12	99

Arranged by SMILES length (smallest number first): part of the list above.
SMILES	GIV-Gai inh
COc1ccc(C2SCc3cc(C)c(C)cc3CS2)cc1	111
COCCNc1nc(SCc2ccc(Cl)cc2)nc2ccccc12	107
Cc1cc(N2C(=O)NC(=O)/C(=C\C=C\c3ccco3)C2=O)ccc1Br	115

Other entries:
SMILES	GIV-Gai inh
COCCC(=O)N1CCCn2nc(-c3cccs3)cc2C1	105
CC1(C)SC(=S)N(/N=C/c2ccc(Cl)cc2)C1N(O)C(=O)NC1CCCCC1 (centres undefined)	109
O=C(NCC1CC1)C1=C2CCCN2c2ccc(F)cc2S1(=O)=O	100
COc1cccc(NC(=O)CCc2c(C)n(C)c3cc(-c4ccccc4OC)nn3c2=O)c1	104
CCC(=O)Nc1ccc2nc(SCc3cc(=O)c4cc(C)cc(C)c4[nH]3)sc2c1	109
CCN1/C(=c2/s/c(=C3/C(=O)N(c4ccc(Cl)cc4)N=C3C)n(CC)c2=O)C=Cc2ccccc21	112
COCCN(Cc1ccc(C(C)C)cc1)Cc1cc(=O)n2nc(C3CC3)sc2n1	110
O=C(c1ccc(SCCN2CCOCC2)nc1)N1CCN(Cc2ccc3c(c2)OCO3)CC1	100
Cc1ccc(-n2ccc(=O)c(-c3nc(-c4ccc(F)c(Cl)c4)no3)n2)cc1	98
Cc1ccc(NC(=O)C(Cc2c[nH]c3ccccc23)NC(=O)Oc2ccccc2)cc1 (centres undefined)	108
O=C1Nc2cc(S(=O)(=O)NC3CCCC3)ccc2SC1C(=O)N1CCOCC1 (centres undefined)	104
CCn1c(C)c(CN2CCC(C(=O)NCc3ccccn3)CC2)c2ccccc21	94
O=C1c2ccccc2C(=O)N1CC(=O)N1c2ccccc2Sc2ccc(C(F)(F)F)cc21	113
O=C(CNC(=O)Cc1ccc(F)cc1)NCc1cscn1	105
COc1cccc2c1OC(c1ccccc1Cl)N1N=C(c3cccnc3)CC21 (centres undefined)	106
CN1CCN(C(=O)CN2C(=O)C3CCCN3C(=O)c3cc(F)ccc32)CC1 (centres undefined)	100
CCOC(=O)C1=C(C)NC2=C(C(=O)C(C(=O)OCC)C(c3ccccc3OC)C2)C1c1ccc(OC)cc1OC (centres undefined)	103
Cc1cc(C)cc(C(=O)Nc2ccc(-c3cn4c(C(=O)N(C)C)csc4n3)cc2)c1	108
Cc1ccccc1Nc1nc(C2(C)CC3(CC(COCC(C)C)OC3=O)C(=O)O2)cs1 (centres undefined)	111
Cc1ccccc1CNC(=O)C1(C)CCCN(C(=O)c2ccccc2Br)C1 (centres undefined)	103

Five entries already listed, sorted by the number in GIV-Gai inh, lowest first.
SMILES	GIV-Gai inh
O=C(c1ccc(SCCN2CCOCC2)nc1)N1CCN(Cc2ccc3c(c2)OCO3)CC1	100
O=C1Nc2cc(S(=O)(=O)NC3CCCC3)ccc2SC1C(=O)N1CCOCC1 (centres undefined)	104
O=C(CNC(=O)Cc1ccc(F)cc1)NCc1cscn1	105
CC1(C)SC(=S)N(/N=C/c2ccc(Cl)cc2)C1N(O)C(=O)NC1CCCCC1 (centres undefined)	109
Cc1ccccc1Nc1nc(C2(C)CC3(CC(COCC(C)C)OC3=O)C(=O)O2)cs1 (centres undefined)	111

Carrying on:
SMILES	GIV-Gai inh
Cc1ccc2c(c1)NC(=O)c1cc(S(=O)(=O)N3CCC(C)CC3)c(Cl)cc1O2	103
O=C(O)CNc1ncnc2c1oc1ccccc12	108
NNC(=O)CCn1c2ccc(Cl)cc2c2cc(Cl)ccc21	106
O=S1(=O)N=CN(c2ccc3c(c2)CCC3)c2ncccc21	107
COc1cc(C2Nc3ccc4ccccc4c3C3=C2C(=O)CC(C)(C)C3)ccc1OCc1ccccc1F (centres undefined)	112
O=C(Nc1ccc2c(c1)OCO2)N1CCCN(c2nc3cc(F)ccc3n3cccc23)CC1	98
O=C(NC1CC1)C1CCCN1C(=O)c1ccc(NS(=O)(=O)c2ccc(F)cc2)cc1 (centres undefined)	108
COc1cc(SC#N)ccc1N=Cc1c(C)[nH]n(-c2ccc(Br)cc2)c1=O	104
CCCCC(=O)N1CCCN(C(=O)Nc2ccc(S(=O)(=O)N3CCCC3)s2)CC1	106
O=C(CSc1nnc2c3sc(N4CCCC4)nc3ncn12)Nc1ccccc1	81*
COc1ccc(C2=NN3C(C2)c2cc(OC)ccc2OC3c2cc(OC)c(OC)c(OC)c2)cc1 (centres undefined)	111
CCCCC(=O)NC(c1ccccc1)c1ccc2cccnc2c1O (centres undefined)	106
CC(C)c1cc(C2CCCN2C(=O)c2cc(-c3ccco3)on2)on1 (centres undefined)	102
Clc1ccc(-c2cn3nc(-c4ccccc4)c(-c4ccccc4)nc3n2)cc1	132
Cc1cccc(NC(=O)Nc2cc3c(cc2N(C)C)n(C)c(=O)n3C)c1	106
O=C(NCc1csc(-c2ccccc2)n1)[C@H]1CSCN1C(=O)CCC1CCCC1	101
CCc1ccc(NC(=O)c2cc(S(=O)(=O)N3CCc4ccccc4C3)ccc2F)cc1	103
O=C(c1ccc2c(=O)n(Cc3ccc4c(c3)OCO4)c(=S)[nH]c2c1)N1CC=C(c2ccccc2)CC1	100
CCOC(=O)c1ccc(Cn2c3ccc(F)cc3c3nc4ccccc4nc32)o1	106
O=C(CCc1nc(CSc2nnc(-c3ccncc3)o2)no1)Nc1ccc(Br)cc1	103
COc1ccccc1CNC(=O)c1sc2nc(C)nc(N3CCN(C)CC3)c2c1C	95
c1ccc(C2=Nc3ccccc3NC(c3ccccc3)C2)cc1 (centres undefined)	109
Cc1cccc(CN2CCCC2c2cc(C(C)C)on2)c1 (centres undefined)	101
O=C(CSc1nc2ccccc2c(=O)n1NC(=O)c1ccc(F)cc1)NCc1ccccc1	109
CC(C)(C)C(=O)C1C(c2ccc(Br)cc2)C(C#N)(C#N)C2C=Cc3ccccc3N12 (centres undefined)	133
COc1cccc(C2C=C(Nc3ccc(C)cc3)C(=O)N2c2ccc(C)cc2)c1 (centres undefined)	107
O=C(NC1CCCCC1)c1nn2c(C(F)(F)F)cc(-c3ccco3)nc2c1Br	100
CC(=O)Nc1cc(-c2nc(Cn3cnc(S(=O)(=O)N4CCCCC4)c3)no2)ccc1C	110
O=S(=O)(NCc1ccc2c(c1)OCO2)c1cc(-c2nc(-c3ccc(Cl)cc3)no2)cs1	104
Clc1ccc(Nc2nc(NCc3ccco3)c3ccccc3n2)cc1	105
Cc1ccc(-c2nc3ccccc3c3nnc(SCC(=O)N4CCCC4)n23)cc1	104
O=C(NCCCN1CCCC1=O)C1CCN(c2ncnc3c2oc2ccccc23)CC1	105
CCOC(=O)c1c(C)[nH]c(CCC(=O)NC2CC2)c1C	105
CCOC(=O)c1c(S(=O)(=O)NCC(=O)Nc2ccccn2)c(C)n(C)c1C	99
Cn1c(=O)c(=O)n(CC(=O)N2CCN(c3ccccc3)CC2)c2cccnc21	96
N#CC1=C(N)n2c(s/c(=C\c3cc(Br)ccc3F)c2=O)=C(C#N)C1c1cc(Br)ccc1F (centres undefined)	123
COc1ccc(CNc2nc(SCC(=O)N3CCC(C)CC3)nc3ccccc23)cc1	108
CCn1cnnc1C1CCCN(Cc2cccc3[nH]ccc23)C1 (centres undefined)	107
CCOC(=O)c1sc(NC(=O)C(C)Sc2nnc(CNC(=O)c3cccs3)n2C)c(C(=O)OCC)c1C (centres undefined)	102
CCOc1ccc(N(C)S(=O)(=O)c2ccc3[nH]cc(C(=O)N4CCN(c5ccccc5)CC4)c(=O)c3c2)cc1	99
Cc1csc(-c2csc(S(=O)(=O)N3CCC(Cc4ccccc4)CC3)c2)n1	99
COc1cc(OC)cc(C(=O)Oc2cccc(NC3=NS(=O)(=O)c4ccccc43)c2)c1	103
CC(=O)C1=NN(c2ccc(Br)cc2)C2(S1)SC(c1ccc(C)cc1)(c1ccc(C)cc1)c1ccccc12 (centres undefined)	103
O=C(NC1CCCCC1)c1cccc(Oc2cc(-c3ccccc3)ncn2)c1	109
Cc1cc(C2CCCN2C(=O)c2cc(C(F)(F)F)nn2C)on1 (centres undefined)	102
O=S(=O)(c1cccnc1)N1CCN(c2ncnc3c2nnn3-c2ccccc2)CC1	96
CCCC1=C(C(=O)OCC)C(c2ccc(OC)c(CSc3ccccn3)c2)C(C#N)=C(N)O1 (centres undefined)	105
O=C(O)C1=CC(c2cn[nH]c2-c2ccc(F)cc2)n2ncnc2N1 (centres undefined)	101
N#C/C(=C1\CCCCCN1)c1nnc2n1CCCCC2	109
Cc1cc(C2CCCN2C(=O)C(C)(C)C)on1 (centres undefined)	105
O=C(NCCCN1CCOCC1)C1CCN(c2ncc(-c3ccc(F)cc3)cn2)CC1	104
CCC(=O)Nc1c(-c2ccccc2)nc2ccc(C)cn12	102
CCCS(=O)(=O)c1nc2ccc(NS(=O)(=O)c3cc(OC)ccc3OC)cc2s1	100
Cc1cc(C)c2c(c1)CC(C)(C)c1nc3cc(Cl)c(Cl)cc3nc1-2	100
O=C(CN1C(=O)C2C3C=CC(C3)C2C1=O)Nc1nccs1 (centres undefined)	101
CCc1ccc(-c2ccc(-n3nc(C)c(S(=O)(=O)N4CCC(C)CC4)c3C)nn2)cc1	108
CCOC(=O)C1=C(N)N(c2ccc(S(N)(=O)=O)cc2)C2=C(C(=O)CC(C)(C)C2)C1c1ccc(F)cc1 (centres undefined)	117
CCCOP(=O)(OCCC)C(NC(=O)c1ccccc1)=C(Sc1ccc(Cl)cc1)Sc1ccc(Cl)cc1	116
CC1CCN(c2ccc(-c3noc(C(=O)N4CCN(C(=O)c5cc6ccccc6[nH]5)CC4)n3)cc2)CC1	102
Cc1cc(C)c(N=C2c3cc(C)ccc3-c3ncccc32)c(C)c1	106

Reprinted at random: 5 records from the list
SMILES	GIV-Gai inh
O=C(O)C1=CC(c2cn[nH]c2-c2ccc(F)cc2)n2ncnc2N1 (centres undefined)	101
Cc1cc(C)c2c(c1)CC(C)(C)c1nc3cc(Cl)c(Cl)cc3nc1-2	100
O=S(=O)(c1cccnc1)N1CCN(c2ncnc3c2nnn3-c2ccccc2)CC1	96
Cc1cc(C2CCCN2C(=O)C(C)(C)C)on1 (centres undefined)	105
Cc1cc(C2CCCN2C(=O)c2cc(C(F)(F)F)nn2C)on1 (centres undefined)	102

Remaining list, next part.
SMILES	GIV-Gai inh
c1cc(-c2nnc3n2CCCCC3)ccn1	112
C=CCOc1ccc(C2CC(=O)Nc3c2cnn3-c2nc3ccccc3s2)cc1OC (centres undefined)	103
COc1cc(-c2c(C#N)c(N)n3c(nc4ccccc43)c2C#N)ccc1OCC#N	122
OC(CN1CCCCC1)Cn1c2ccc(Cl)cc2c2cc(Cl)ccc21 (centres undefined)	116
CC(=O)n1c2c(c3ccccc31)OC(N)=C(C#N)C2c1ccncc1 (centres undefined)	110
COC(=O)c1ccc(OCc2nc(N)nc(N3CCCCC3)n2)cc1	102
COC(=O)Nc1ccc(S(=O)(=O)N2CCCC(C(=O)N(C)Cc3ccccc3)C2)cc1 (centres undefined)	115
Cc1ccc(CNC2=NCCNC23CCC(C)CC3)cc1 (centres undefined)	99
Cc1c(C(=O)Nc2ccc(F)cc2)sc2ncnc(N3CCN(c4ccccn4)CC3)c12	103
Cc1cc2c(cc1S(=O)(=O)N1CCCC1C(=O)N1CCc3ccccc31)OCC(=O)N2 (centres undefined)	97
CC(C)OC(=O)c1nnn(-c2nonc2N)c1CN1CCCCCC1	124
COc1ccc(C(=O)Nn2c(SCC(=O)NCCc3ccc(OC)c(OC)c3)nc3ccccc3c2=O)cc1	112

Only part of the results is shown. The share of hits here may be higher or lower than overall.
